Screens deposited in PubChem BioAssay by National Center for Advancing Translational Sciences (NCATS).
TRPML1 agonist: human mucolipin-1 channel agonism; actives 0.12% (n = 410,000); TRPML1-expressing cells, Ca2+ dye fluorescence, FDSS; host cell line not named in the record; reference of the full effect not given here; activation, % (concentration not given with the values); Q9GZU1; AID 624414; in the data active = activation above about 50%; inconclusive = about 30% to 50%; inactive = below about 30%; also: 0% is about no effect; the text of the record puts the active cut at 80%
Target sequence (Q9GZU1 whole entry, looked up): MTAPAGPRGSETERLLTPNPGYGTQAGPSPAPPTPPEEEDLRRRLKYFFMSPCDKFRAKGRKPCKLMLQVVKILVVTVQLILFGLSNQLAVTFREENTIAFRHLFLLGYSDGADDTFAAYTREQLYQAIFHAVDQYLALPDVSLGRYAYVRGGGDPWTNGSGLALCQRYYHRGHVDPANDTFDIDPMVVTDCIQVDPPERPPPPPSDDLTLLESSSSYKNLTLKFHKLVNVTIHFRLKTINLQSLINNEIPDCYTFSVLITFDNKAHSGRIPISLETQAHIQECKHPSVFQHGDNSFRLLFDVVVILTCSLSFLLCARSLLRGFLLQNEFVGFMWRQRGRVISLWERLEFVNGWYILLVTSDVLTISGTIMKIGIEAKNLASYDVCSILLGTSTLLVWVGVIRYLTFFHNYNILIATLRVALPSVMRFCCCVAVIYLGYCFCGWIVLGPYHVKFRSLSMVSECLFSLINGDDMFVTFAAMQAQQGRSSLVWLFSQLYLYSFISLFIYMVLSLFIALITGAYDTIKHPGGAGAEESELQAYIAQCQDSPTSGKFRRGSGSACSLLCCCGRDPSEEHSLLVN
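Agonist activity was taken from a 110 s kinetic Ca2+ dye read on the FDSS after pinning compounds onto TRPML1-DL cells. The cells were seeded at 1,500/well with Tet inducer, incubated about 16 h, then dye-loaded at room temperature.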
Six1-Eya2 inh: Six1/Eya2 interaction inhibition; AID 651725; actives 0.56% (n = 360,000); Q15475+O00167; activity change, % (test concentration not listed); AlphaScreen GST-Six1/His-Eya2 binding, biochemical; active compounds read low; control for the full effect not named in the record; in the data active = activity change below about -65%; inconclusive = about -30% to -65%; inactive = above about -30%; also: % is scaled to controls: 0 for no effect and ±100 for the full control effect
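Compounds are tested against tagged Six1 and Eya2 proteins bridged by glutathione donor and nickel acceptor beads; after a one-hour incubation at 37 °C without light, AlphaScreen emission is recorded.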
CtBP-E1A blk: CtBP/E1A binding inhibition | AlphaScreen GST-E1A/His-CtBP binding, 1536-well; active compounds read low; control for the full effect not named in the record | activity change, % (no concentration beside the values) | actives 0.49% (n = 340,000); in the data active means activity change below about -65%; inconclusive means about -30% to -65%; inactive means above about -30%; also: % is scaled to controls: 0 for no effect and ±100 for the full control effect
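Steps: dispense buffer (Tris pH 8.0, NaCl 300 mM, TCEP 1 mM, BSA, Tween 20); add 5X protein mix (GST-E1A, His-CtBP, 125 nM each); pin 23 nL compound; 2 h at 37 °C, dark; add 5X beads (50 ug/mL); 1 h; read.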
PINK1 expr mod: modulators of PINK1 expression; PINK1 immunofluorescence, high-content cytometry, 24 h; Potency, µM (highest dose often 76.6 µM), for the others: at the highest dose activation (PINK1 increase), usual class: activators; actives 0.2% (n = 410,000); AID 624263; active = well fitted activation curve with a large enough effect; inconclusive = small, poorly fitted or top-dose-only effect; inactive = flat fitted curve, though single readings scatter; cell line not stated here;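 also: potency is read from the fitted curve at half-maximal effect; % of control where 0% means no effect; nearly all actives have a fitted effect of over 65% in size; a mitochondrial uncoupler was the plate control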
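Measures PINK1 amount and localization on or inside mitochondria by immunofluorescence. Stable cells get compounds at 5 concentrations for 24 hours before fixation and staining; CCCP controls included.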
D2 potentiator: positive allosteric modulators of human D2 dopamine receptor; DiscoveRx D2 beta-arrestin cells, luminescence, 90 min; 100% = 57 uM dopamine signal; actives 0.23% (n = 360,000); P14416; potentiation, % (no concentration beside the values); AID 624464; active = potentiation of 50% or more; inconclusive = 30% to 50%; inactive = 30% or less;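 also: compound concentration not given in the record; tested on top of an EC20 dose of dopamine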
Target sequence (P14416 whole entry, looked up): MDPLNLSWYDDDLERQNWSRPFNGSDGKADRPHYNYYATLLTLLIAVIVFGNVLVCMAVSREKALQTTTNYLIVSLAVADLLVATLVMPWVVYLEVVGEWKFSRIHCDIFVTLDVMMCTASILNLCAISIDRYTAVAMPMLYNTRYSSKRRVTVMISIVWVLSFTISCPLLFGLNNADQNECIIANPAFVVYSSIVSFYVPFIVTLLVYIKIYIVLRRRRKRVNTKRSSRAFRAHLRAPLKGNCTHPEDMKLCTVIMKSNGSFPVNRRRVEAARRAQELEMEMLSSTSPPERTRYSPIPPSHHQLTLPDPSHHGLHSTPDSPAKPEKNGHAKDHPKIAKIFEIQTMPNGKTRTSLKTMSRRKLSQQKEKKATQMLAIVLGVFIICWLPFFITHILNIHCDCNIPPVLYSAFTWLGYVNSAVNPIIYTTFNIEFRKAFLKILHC
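PathHunter D2 cells, attached overnight at 37 deg C, received compound in DMSO plus dopamine at EC20 (50 nM final) for 90 min at 37 deg C. Beta-arrestin recruitment was read as luminescence after 1 h with detection reagent at ambient temperature.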
D2 ag: activates the human D2 dopamine receptor | P14416 | DiscoveRx PathHunter D2 beta-arrestin, luminescence, 90 min; 100% = 57 uM dopamine signal | activation, % (concentration not given with the values) | actives 0.084% (n = 360,000); in the data active = activation above about 40%; inconclusive = about 15% to 40%; inactive = below about 15%; also: compound concentration not given in the record; the text of the record calls up to 30% inactive
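Agonist mode: compounds alone added to overnight-plated D2 PathHunter cells for 90 min at 37 C, with 57 uM final dopamine (EC100) defining full response. Beta-arrestin recruitment detected by chemiluminescent reagent, read after 1 h at ambient temperature.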
Numbers without * were called inactive; u = inconclusive; x = not tested or not shown; & = joins results of further samples; [ ] = dose if it differs, or a comment. Not a hit list (roughly 1.3% active in at least one column).

SMILES	TRPML1 agonist	Six1-Eya2 inh	CtBP-E1A blk	PINK1 expr mod	D2 potentiator	D2 ag
CC1=CC(C)(C)Nc2ccc(OC(=O)c3cccnc3)cc21	-0.5	-14.1	-0.9	-0.4%	u	5.3
C#CCOCCOCCOCCNc1nc(N2CCOCC2)nc(N2CCN(C(=O)CCCCCCCCCCNC(=O)Cn3cc(CCCCCN)nn3)CC2)n1	0.3	-6.9	-23.1	-0.9%	-15.6	-1.6
N#Cc1ccc(Nc2nc(-c3ccccc3)cs2)cc1	-0.4	-5.6	0.2	u	-6.6	6.9
N=c1sccn1CC(=O)Nc1ccc(S(=O)(=O)N2CCOCC2)cc1	-0.6	6.6	5.5	-1.0%	-9.5	1.1
CC(=O)NCc1ccc(S(=O)(=O)N2CCN(S(=O)(=O)c3ccc4ccccc4c3)CC2)cc1	-0.3	9.6	6.2	u	-1.6	0.2
O=C(NCc1ccc2c(c1)OCO2)C1CC(c2cccc(Br)c2)=NO1 (stereo not drawn)	0.2	-5.3	0.7	0.0%	-5.0	-0.9
COc1cc(C(N)=O)cc(Br)c1OC	-1.1	0.9	8.6	-1.7%	16.4	0.6
COc1cc(NC(=O)c2c(F)cccc2F)nc(OC)n1	-0.6	-1.9	-13.7	9.6%[38.3 µM]	1.4	-0.4
CCCCCC(N)=O	-0.7	0.6	1.6	1.1%	-0.8	-4.9
CCNS(=O)(=O)c1ccc(CCC(=O)N2CCN(c3ccc(OC)cc3)CC2)cc1	-1.3	1.0	-2.8	2.4%	-4.7	-1.1
Cc1ccc(OCc2nnc(SCC(=O)c3ccccc3)n2-c2ccccc2)cc1	1.1	12.1	30.2	-0.2%[38.3 µM]	-1.3	-1.3
N#C/C(=C\c1cn(CC(=O)N2CCCC2)c2ccccc12)C(=O)NCc1ccc2c(c1)OCO2	-0.3	-4.9	2.5	1.4%	-4.0	-6.2
COc1cc(C)c(/C=C(\C#N)C(=O)Nc2cccc(C)c2)cc1C(C)C	0.7	14.0	-1.3	10.5%	-8.7	-5.8
COc1ccc2nc(-c3ccccc3)cc(C(=O)N3CCC3)c2c1	-0.7	-4.2	x	1.2%	-0.3	-3.8
COC(=O)C1=CN(c2ccc(OC)cc2)C=C(C(=O)OC)C1c1cccc(F)c1	x	9.0	x	2.0%	10.3	1.4
CCC(C)(C)NC(=O)C(c1ccc(C)cc1)N(Cc1cccs1)C(=O)c1ccc2c(c1)OCCO2 (stereo not drawn)	2.8	-2.4	-14.3	1.5%[38.3 µM]	-8.0	-0.6
COc1ccc2c(c1OC)C(=O)N1c3ccccc3SC21 (stereo not drawn)	0.7	0.8	0.0	-1.6%	-8.0	0.0
Cc1noc(C)c1CSc1nnc2scc(-c3ccc(Cl)cc3)n12	1.6	3.2	5.3	-9.9%[38.3 µM]	-6.3	0.5
Nc1nc(Nc2cccc(Cl)c2)nc(NCCO)c1[N+](=O)[O-]	1.5	-19.5	-20.6	-1.3%	-3.0	-2.0
O=C(Oc1cccnc1)c1ccc([N+](=O)[O-])cc1Cl	0.1	-24.1	-10.3	1.1%	3.8	-3.5
CCN(CC(=O)NCc1cccs1)S(=O)(=O)c1ccc(C(C)C)cc1	-0.8	0.5	4.0	0.5%	9.7	-0.4
O=C(COc1ccc(Cl)cc1Cl)NCCSc1ccc(Cl)cc1	2.8	12.4	9.6	16.2%	15.1	-0.5
COc1cc(S(=O)(=O)N2CCOCC2)ccc1NC(=O)COC(=O)/C=C/c1cc(OC)c(OC)c(OC)c1	0.9	-21.6	-3.1	-0.6%	-18.2	-0.5
CCCC[C@@H]1C=C(C(=O)O)[C@H](c2ccc(C#N)cc2)N1S(=O)(=O)c1ccc(C)cc1	-0.2	1.9	1.5	2.1%	x	1.1
CCOc1ccc(C(=O)C(CCC(CN(C)C)C(=O)c2ccc(OCC)cc2)CN(C)C)cc1 (stereo not drawn)	11.2	3.5	-13.6	-2.4%	-10.6	-1.3

Limited to CtBP-E1A blk and PINK1 expr mod (3 entries from above):
structure	CtBP-E1A blk	PINK1 expr mod
CCN(CC(=O)NCc1cccs1)S(=O)(=O)c1ccc(C(C)C)cc1	4.0	0.5%
N#C/C(=C\c1cn(CC(=O)N2CCCC2)c2ccccc12)C(=O)NCc1ccc2c(c1)OCO2	2.5	1.4%
O=C(COc1ccc(Cl)cc1Cl)NCCSc1ccc(Cl)cc1	9.6	16.2%

Grouped by structure, those above containing four or more nitrogen atoms.
SMILES	TRPML1 agonist	Six1-Eya2 inh	CtBP-E1A blk	PINK1 expr mod	D2 potentiator	D2 ag
C#CCOCCOCCOCCNc1nc(N2CCOCC2)nc(N2CCN(C(=O)CCCCCCCCCCNC(=O)Cn3cc(CCCCCN)nn3)CC2)n1	0.3	-6.9	-23.1	-0.9%	-15.6	-1.6
N=c1sccn1CC(=O)Nc1ccc(S(=O)(=O)N2CCOCC2)cc1	-0.6	6.6	5.5	-1.0%	-9.5	1.1
N#C/C(=C\c1cn(CC(=O)N2CCCC2)c2ccccc12)C(=O)NCc1ccc2c(c1)OCO2	-0.3	-4.9	2.5	1.4%	-4.0	-6.2
Cc1noc(C)c1CSc1nnc2scc(-c3ccc(Cl)cc3)n12	1.6	3.2	5.3	-9.9%[38.3 µM]	-6.3	0.5
Nc1nc(Nc2cccc(Cl)c2)nc(NCCO)c1[N+](=O)[O-]	1.5	-19.5	-20.6	-1.3%	-3.0	-2.0

Single records, as listed above:
Cc1ccc(OCc2nnc(SCC(=O)c3ccccc3)n2-c2ccccc2)cc1 in the list: TRPML1 agonist = 1.1; Six1-Eya2 inh = 12.1; CtBP-E1A blk = 30.2; PINK1 expr mod = -0.2%[38.3 µM]; D2 potentiator = -1.3; D2 ag = -1.3
CCCC[C@@H]1C=C(C(=O)O)[C@H](c2ccc(C#N)cc2)N1S(=O)(=O)c1ccc(C)cc1 in the list: TRPML1 agonist = -0.2; Six1-Eya2 inh = 1.9; CtBP-E1A blk = 1.5; PINK1 expr mod = 2.1%; D2 potentiator = x; D2 ag = 1.1

Next section.
SMILES	TRPML1 agonist	Six1-Eya2 inh	CtBP-E1A blk	PINK1 expr mod	D2 potentiator	D2 ag
COCC(=O)N1CCC(Oc2ccc(C(=O)NCc3cc(C)no3)cc2)CC1	-0.3	11.2	4.9	0.5%	6.0	0.3
O=C(O)C1(c2ccccc2)CCN(S(=O)(=O)c2ccc(Br)cc2)CC1	-0.3	3.3	3.4	0.2%	-0.5	8.6
Cn1c(Cn2c(=O)sc3ccccc32)nnc1SCC(=O)Nc1ccccc1	0.8	0.8	1.4	-1.0%	-5.6	-2.6
CCCN(CC(=O)Nc1ccc(F)c(F)c1F)C(=O)CCc1nc2ccccc2c(=O)[nH]1	-1.3	6.3	23.5	4.6%	-26.1	-6.6
C=CCSc1n[nH]c(-c2ccc(OCCCC)cc2)n1	2.4	-2.0	6.4	3.7%	-0.4	4.4
C/C(=N\NC(N)=S)c1ccc(Cl)s1	0.0	2.8	-5.3	-0.9%	-6.9	-3.9
CCOc1ccc(-c2nn(-c3ccccc3)cc2/C=C2\SC(=S)N(Cc3ccco3)C2=O)cc1	0.4	9.2	14.7	29.8%	-3.6	-2.1
CCCCc1nc(NCCNC(=O)c2ccccc2)c(C#N)c2c1CSC(C)(C)C2	6.5	-16.2	-10.2	-1.3%	0.4	-2.9
CSc1cccc(NS(=O)(=O)c2ccc3c(c2)NC(=O)C(C)C(=O)N3)c1 (stereo not drawn)	0.2	0.3	-0.4	-0.6%	-0.9	-2.2
O=C(CN1CCCCC1)Nc1ccc(S(=O)(=O)c2ccc(NC(=O)CN3CCCCC3)cc2)cc1	-0.9	-2.6	4.8	9.2%	-3.4	2.1
O=C(NCC1COCCO1)c1ccc(OC2CCN(CCc3ccccc3)CC2)cc1 (stereo not drawn)	0.8	5.0	5.0	-0.2%	-31.8	-4.4
COc1ccc(/C=C(\NC(=O)c2ccc([N+](=O)[O-])cc2)C(=O)NCCCN2CCOCC2)cc1	-0.5	-2.2	8.3	-1.8%	-4.1	-1.8
CC[C@@]12C(=O)N(c3cccc(F)c3)C(=O)N1[C@H](c1ccc(F)cc1)[C@@H]1C(=O)N(C3CCCCC3)C(=O)[C@@H]12	-0.1	2.8	7.5	0.1%	-7.9	0.1
COc1ccc(C(=O)N/C(=C/c2cccnc2)C(=O)Nc2cccc(C(C)=O)c2)cc1OC	-0.8	4.5	18.8	2.1%	-4.8	-5.1
C[C@H]1CN([C@@H](C)CO)C(=O)CCCn2cc(nn2)CO[C@@H]1CN(C)C(=O)Nc1ccccc1	x	2.8	2.4	2.0%	x	-0.6
COc1cc(C2c3cc4c(cc3OC(NCc3ccccc3)C2C)OCO4)cc(OC)c1OC (stereo not drawn)	0.0	-8.6	-0.4	6.9%	-4.4	-0.9
COc1cccc(C(C(=O)Nc2ccc(F)cc2)N(C(=O)Cn2nnc3ccccc32)C2CC2)c1 (stereo not drawn)	2.0	1.7	3.8	x	-25.7	-0.6
Cc1c(Cl)ccc(S(=O)(=O)NCCN2CCOCC2)c1Cl	-0.8	-4.8	x	2.9%	-3.5	5.6
COc1cccc2cc(C(=O)C3=C(O)C(=O)N(CCN4CCOCC4)C3c3cccs3)oc12 (stereo not drawn)	-0.6	5.7	-5.0	0.5%	-2.4	-3.8
O=C(c1cccc(S(=O)(=O)NCc2ccccc2)c1)N1CCN(c2ccccc2Cl)CC1	1.1	-2.3	-11.1	3.2%	3.4	-2.6
Nc1nc(Cl)cc(Sc2ccc(F)cc2)n1	2.0	1.3	20.4	-0.8%	-11.6	-0.8
O=c1cc(O)nc(-c2ccc(Cl)cc2)s1	1.7	5.5	0.8	2.4%	-5.6	-2.0
N#CC(C(=O)NC1CCCCC1)=C1CCCCCC1	-0.5	0.9	-2.2	-1.4%	-18.5	-2.3
Cc1oc2cc3oc(=O)c(CCC(=O)N[C@H](C(=O)O)C(C)C)c(C)c3cc2c1C	-0.1	1.8	-0.2	-1.0%	-4.5	-3.5
O=C(NNc1ccc(Cl)nn1)c1ccc(Cl)cc1	-0.5	-11.1	-6.0	4.7%	-4.8	3.0
Cc1ccc(NC(=O)C2CCCN(S(=O)(=O)c3cccc4cccnc34)C2)cc1 (stereo not drawn)	-1.2&2.2	-5.3	-3.7	1.0%&-0.8%	-3.7	-6.9
COC(=O)c1sccc1NC(=O)CC1C(=O)NCCN1C(=O)c1ccc(C)c(C)c1 (stereo not drawn)	0.5	5.1	4.0	-0.6%	2.2	-0.9
COc1cc2c(=O)n(CC3CCCO3)c(=O)n(CC(=O)Nc3cccc(Cl)c3)c2cc1OC (stereo not drawn)	1.0	-1.5	2.6	14.2%	-9.4	-1.1
COCCCN1C(=O)C2C(C(=O)Nc3cccc(Cl)c3)C3C=CC2(O3)C1C(=O)NC1CCCCC1 (stereo not drawn)	-1.0	8.1	27.6	-0.2%	-6.6	-3.5
